Mtb H37Rv = Mycobacterium tuberculosis H37Rv growth inhibition, putative kinase inhibitor library, confirmatory dose response (AID 2842) | M. tuberculosis H37Rv growth inhibition; higher % means a stronger effect; some inactives read as strong as hits | inhibition, % at 10 µg/mL; hits with a dose series show IC90 in µg/mL | 24,000 compounds, 5.2% hits;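 active = confirmed in a dose series; inconclusive = mostly over 85% at the one dose but not retested; inactive = below 85% or not confirmed; about a fifth of its hits are not listed in these tables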;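 also: bacteria incubated one week before Alamar blue readout; 0% = bacteria only wells and 100% = bacteria with high antibiotic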
An asterisk follows results filed as active; u = inconclusive.

The opening 2 records, to show the layout:
SMILES | Mtb H37Rv
O=C(CSc1nnc2[nH]c(=O)ccn12)N1CCc2ccccc21 | -3%
O=C1/C(=C/c2ccco2)CC/C1=C\c1ccco1 | -6%

The whole of this part, from the start:
SMILES | Mtb H37Rv
O=C(CSc1nnc2[nH]c(=O)ccn12)N1CCc2ccccc21 | -3%
O=C1/C(=C/c2ccco2)CC/C1=C\c1ccco1 | -6%
O=C(Nc1nc(-c2ccccc2)cs1)c1cc(-c2ccccc2)nc2ccccc12 | 24%
O=C(c1ccc(F)cc1)N1N=C(c2c(-c3ccccc3)c3cc(Br)ccc3[nH]c2=O)CC1c1ccco1 (stereo not given) | 13µg/mL*
Cc1cccc(NC(=O)c2ccc(S(=O)(=O)N3CCCCC3)cc2)c1 | 10%
COc1ccc(-c2nc(NC(=O)c3ccc4c(c3)OCCO4)sc2C)cc1 | 66%
O=[N+]([O-])c1ccc(S(=O)(=O)Nc2ccc(SC(F)F)cc2)cc1 | u
COc1ccc(Cl)c2sc(N3CCN(C(=O)c4cccc(S(C)(=O)=O)c4)CC3)nc12 | -9%
COc1ccc(-c2nnc3ccc(SCC(=O)Nc4cc(C)ccc4C)nn23)cc1 | 4%
Cc1ccccc1C(=O)Nc1cccc(-c2ccc(N3CCN(C)CC3)nn2)c1 | 4%

Not a retest: entries from further up.
SMILES | Mtb H37Rv
O=C(CSc1nnc2[nH]c(=O)ccn12)N1CCc2ccccc21 | -3%
O=C1/C(=C/c2ccco2)CC/C1=C\c1ccco1 | -6%

Exported as labelled records: part of the list above
> O=C1/C(=C/c2ccco2)CC/C1=C\c1ccco1
  Mtb H37Rv = -6%
> O=C(Nc1nc(-c2ccccc2)cs1)c1cc(-c2ccccc2)nc2ccccc12
  Mtb H37Rv = 24%

(next part)
SMILES | Mtb H37Rv
CC1CCc2nc(NC(=O)COc3ccc(Cl)cc3)sc2C1 (stereo not given) | 11%
O=C(Nc1c(C(=O)Nc2ccccc2)oc2ccccc12)c1ccccc1C(F)(F)F | -3%
CCC(=O)Nc1c(C(=O)Nc2ccc(F)c(Cl)c2)oc2ccccc12 | -1%
O=c1[nH]c(N/N=C/c2cccnc2)nnc1-c1ccccc1 | -3%
COc1cc2c(=O)c(C(=O)c3ccccc3)cn(Cc3cccc(F)c3)c2cc1OC | 6%
COc1cc(C=NNC(=O)Nc2cccc(Cl)c2)ccc1O | 8.5µg/mL*
Cc1ccc2cc(CCNC(=O)c3cccc4ccccc34)c(=O)[nH]c2c1 | -4%
Cc1cc(NC(=O)CSc2nnc3[nH]c(=O)c(C)c(C)n23)no1 | 1%
COc1ccc2nc(NC(=O)c3ccc(N4C(=O)CCC4=O)cc3)sc2c1 | 15%
Oc1c(Br)cc(Br)cc1/C=N/n1cn[nH]c1=S | -3%

Fetched by compound from the entries so far (two):
SMILES | Mtb H37Rv
COc1ccc(-c2nc(NC(=O)c3ccc4c(c3)OCCO4)sc2C)cc1 | 66%
COc1ccc(-c2nnc3ccc(SCC(=O)Nc4cc(C)ccc4C)nn23)cc1 | 4%

Continued.
SMILES | Mtb H37Rv
Cn1c(=O)[nH]c(=O)c2c1nc(NCCO)n2CCCOc1ccccc1 | -6%
COc1cccc(CNc2nccn(-c3ccccc3OC)c2=O)c1 | 2%
Cn1c(=O)c2c(nc3oc(-c4ccc(F)cc4)cn32)n(C)c1=O | -7%
O=C1CCc2cc(S(=O)(=O)Nc3ccc(C(F)(F)F)cc3)cc3c2N1CC3 | 3%
O=C(Nc1c(C(=O)Nc2cccc(F)c2)oc2ccccc12)c1ccccc1Br | 3%
COc1cccc(C(=O)N(CCCn2ccnc2)c2nc3ccc(F)cc3s2)c1OC | 6.8µg/mL*
O=C(CSc1ccc2nnc(-c3ccccc3)n2n1)N1CCCc2ccccc21 | 5%
Cc1cc(=O)oc2cc(OC(C)C(=O)Nc3ccccc3F)ccc12 (stereo not given) | 10%
CCOc1ccc2c(c1)c1nnc(-c3ccc(OC)cc3)c-1cn2Cc1cccc(F)c1 | -4%
COc1ccc(C)cc1NC(=O)c1cncc(Br)c1 | 1%
Cc1ccc(C(=O)c2cn(CC(=O)Nc3ccc4c(c3)OCCO4)c3cc4c(cc3c2=O)OCCO4)cc1C | -15%
O=C(NCCCO)c1ccc(CSc2nc3sc4c(c3c(=O)[nH]2)CCC4)cc1 | -16%
COc1ccc(S(=O)(=O)ON2C(=O)c3cccc4cccc(c34)C2=O)cc1OC | -7%
O=C(Nc1nnc(-c2ccc3c(c2)OCCO3)o1)c1ccc2ncsc2c1 | 1%
O=C(/C=C/c1ccc2c(c1)OCO2)Nc1c(C(=O)Nc2ccc(F)c(F)c2)oc2ccccc12 | 6%
COc1cccc(C(=O)Nc2nnc(-c3ccc(S(C)(=O)=O)cc3)o2)c1 | 68%
COc1cccc(N2CC(NS(=O)(=O)c3cc(F)ccc3F)CC2=O)c1 (stereo not given) | 2%
Cc1cc(I)ccc1NC(=O)CC1CCS(=O)(=O)C1 (stereo not given) | 9%
CC(=O)Nc1ccc2nc(Nc3nc4cc5c(cc4s3)OCO5)sc2c1 | 13%
CCOc1ccc(N2CC(NC(=O)Nc3ccc(F)cc3)CC2=O)cc1 (stereo not given) | 3%
CCN1/C(=C(/C#N)c2nc(C#N)c(C#N)nc2Sc2ccc(C)cc2)Nc2ccccc21 | 1%
COc1ccc(OC)c(-c2nc(C(N)=O)c3[nH]c(=O)n(-c4ccccc4OC)c3n2)c1 | 0%
O=[N+]([O-])c1cccc(/C=N/Nc2ncnc3nc[nH]c23)c1 | 2%
Clc1cccc(CSc2nnc3ccc(-c4ccco4)nn23)c1 | 16%
CC(O)CSc1nc2c(c(=O)n(C)c(=O)n2C)n1Cc1ccc(Cl)cc1 (stereo not given) | -1%
CCc1cccc(OCC(O)Cn2c(N3CCCC3)nc3c2c(=O)[nH]c(=O)n3C)c1 (stereo not given) | -4%
COc1cccc2c(=O)n(CC(=O)Nc3ccc(C)cc3C)ccc12 | 3%
O=C(CCCc1nnc2c(=O)n(-c3ccc(Cl)cc3)ccn12)N1CCN(C2CCCCC2)CC1 | -11%
O=C(/C=C/c1ccccc1Cl)Nc1ccc([N+](=O)[O-])cc1Br | -1%
Cn1c(/C(C#N)=C(\O)c2cc(Cl)cc(Cl)c2)nc2ccccc21 | -6%
CCOC(=O)c1nn(-c2ccc(OC)cc2)c(=O)c2c(NC(=O)CCCCl)scc12 | 24%
CCOc1ccc(C(=O)Nc2c(N)nc(SC(CC)C(=O)OC)[nH]c2=O)cc1 (stereo not given) | -12%
O=C(O)COc1ccccc1/C=C1/SC(=S)N(NC(=O)c2ccco2)C1=O | -2%
Nn1c(SCC(=O)Nc2ccc(Cl)cc2)nncc1=O | -9%
Cc1cccc(-n2nnc3c(=O)n(CC(=O)NCc4ccco4)cnc32)c1 | -1%
c1cc(-c2nnc3n2CCCCC3)ccn1 | u
COc1ccc(-n2ccn(CC(=O)Nc3ccccc3F)c(=O)c2=O)cc1Cl | -11%
c1ccc(-c2nnc3ccc(SCc4cccnc4)nn23)cc1 | 1%
O=c1cnnc(NC(c2ccccc2)c2ccccc2)[nH]1 | -10%
CCc1nc(SCc2ccc(Cl)c(Cl)c2)n[nH]1 | 42%
Cc1nnc(SCC(=O)Nc2ccc(Br)cc2)n(N)c1=O | -22%
CSc1ccc2nc(Nc3ccc(F)cc3)sc2c1 | 3%
O=C(Nc1nnc(C2=COCCO2)o1)C1COc2ccccc2O1 (stereo not given) | -5%
CCOc1ccc2nc(NC(=O)CN3C(=O)c4ccccc4C3=O)sc2c1 | -17%
Cc1nn2c(C(=O)NCc3ccccc3)c(C(=O)Nc3ccc(Cl)cc3)sc2nc1=O | 3%
COC(=O)C1CCN(C(c2ccc(F)c(F)c2)c2sc3nc(C)nn3c2O)CC1 (stereo not given) | -1%
CCOC(=O)c1nn(-c2ccc(F)cc2)c(=O)c2c(NC(=O)c3c(F)cccc3Cl)scc12 | 11%
O=C(CSc1ccc2nnc(-c3ccccn3)n2n1)NCc1ccco1 | 77%
O=C1CN(C(=O)c2ccccc2I)C(c2ccccc2)c2cc(F)ccc2N1 (stereo not given) | 32%
O=C(CCSc1ccccc1)Nc1nnc(-c2ccc3c(c2)CCCC3)o1 | 1.9µg/mL*

Next section:
SMILES | Mtb H37Rv
O=c1[nH]ncc(N/N=C\c2cccc(Oc3ccccc3)c2)c1Br | 6%
CCSc1ccccc1C(=O)Nc1nc2ccc(C(=O)OC)cc2s1 | 11%
O=C(CSC1=Nc2cccnc2Nc2ccccc21)N1CCN(c2ccccc2)CC1 | 21%
Cc1nc2cc(NC(=O)Nc3ccc(Cl)cc3)ccc2n1-c1ccccc1 | 7µg/mL*
O=C(Nc1nnc(-c2cccnc2)o1)c1cccc(N2C(=O)CCC2=O)c1 | -17%
COCCNC(=O)CSc1nc(N)c(NC(=O)c2ccccc2)c(=O)[nH]1 | -1%
c1ccc2[nH]ncc2c1 | -3%
CCOc1ccc(C(=O)N(C)c2nnc(C34CC5CC(CC(C5)C3)C4)s2)cc1 | 3%
COC(=O)C1CCN(C(c2ccco2)c2sc3nc(C)nn3c2O)CC1 (stereo not given) | 8%
COc1cc(/C=C/C(=O)NCCSc2ncc(-c3ccccc3)[nH]2)cc(OC)c1OC | 3%
CCc1cccc2sc(N(CCCn3ccnc3)C(=O)c3cc(OC)cc(OC)c3)nc12 | 11µg/mL*
CCOC(=O)N1CCN(C2CC(=O)N(c3ccc(C)c(C)c3)C2=O)CC1 (stereo not given) | -4%
C/C=C/C(=O)Nc1c(C(=O)Nc2ccccc2OCC)oc2ccccc12 | -7%
Cc1cc(C)cc(C(=O)Nc2ccc3c(c2)N(S(=O)(=O)c2cccs2)CCC3)c1 | -11%
CC(=O)c1sc(NC(=O)c2cccc(C)c2)nc1C | 17%
CCn1cc(SCC(=O)Nc2cc(C)cc(C)c2)c2ccccc21 | 11%
Cc1cc(C(=O)NN2C(=O)c3ccccc3C2=O)n[nH]1 | 1%
CCc1ccc2nc(Nc3nc4c(F)cccc4s3)sc2c1 | 94%
CCOC(=O)CNS(=O)(=O)c1ccc2c3c(cccc13)C(=O)N2CC | -10%
CC1(C)Cc2c(sc(NC(=O)c3ccc(Br)s3)c2C#N)C(C)(C)N1 | -4%
Cc1cccc(-n2nnc(C(=O)Nc3ccccc3)c2C)c1 | 7%
Nn1c(SCC(=O)Nc2cccc(F)c2)nnc(Cc2ccc(Cl)cc2)c1=O | 34%
COc1cccc(-n2c(=O)[nH]c3c(C(N)=O)nc(-c4cccc(Br)c4)nc32)c1 | -1%
CCc1ccc(OCC(=O)Nc2ccc(OC)cc2)cc1 | 13µg/mL*
CCN1CCc2c(sc(NC(=O)C3=COCCO3)c2-c2nc3ccccc3s2)C1 | 26%
CS(=O)(=O)c1ccc2nc(NC(=O)c3cc(Cl)cc(Cl)c3)sc2c1 | -2%
COC(=O)C1=C(C)N(C)C(=O)NC1c1ccc(O)c(OC)c1 (stereo not given) | -9%
O=C(Nc1c(C(=O)Nc2ccc(F)c(Cl)c2)oc2ccccc12)c1ccc(F)cc1 | 1%
CCC(=O)Nc1nc2cc3nc(NC(=O)CC)sc3cc2s1 | -15%
O=C(Nc1nc2ccc(F)cc2s1)c1ccc2c(c1)OCCO2 | 0%
COc1ccccc1C1CC(c2cccc(NS(C)(=O)=O)c2)=NN1S(=O)(=O)c1ccccc1 (stereo not given) | 2%
COc1cccc(-c2nc(C(N)=O)c3[nH]c(=O)n(-c4ccc(C)c(C)c4)c3n2)c1 | 10%
Fc1ccccc1Cn1cc2c(-c3ccccc3)nnc-2c2cc3c(cc21)OCCO3 | 22%
Cc1ccc(C)c2[nH]c(=O)c(CCNC(=O)COc3ccc(Cl)cc3)cc12 | -1%
COc1ccc(C)cc1NC(=O)CSc1nnc(CCC(=O)O)c(=O)n1N | -12%
Fc1ccc2nc(Nc3nc4cc5c(cc4s3)OCCO5)sc2c1 | u
O=C(Nc1nc(-c2ccc(F)cc2)cs1)c1ccc(S(=O)(=O)N2CCc3ccccc32)cc1 | 5%
CCN(CC)C(=O)CSc1ccc([N+](=O)[O-])cc1[N+](=O)[O-] | -1%
CCCC(=O)Nc1nnc(-c2ccccc2)o1 | 22µg/mL*
Cc1cc(C)cc(N=c2oc3c(C)ncc(CO)c3cc2C(N)=O)c1 | -6%
CC(=O)Nc1ccc(NC(=O)c2c[nH]c(=O)n(-c3ccc(F)cc3)c2=O)cc1 | 0%
Nc1nc(SCC(=O)Nc2cccc(F)c2)[nH]c(=O)c1NC(=O)c1ccco1 | -13%
CCN(CC)c1ccc(-n2c(O)c(C3=c4ccccc4=NC3=O)sc2=S)cc1 | 2%
O=C(Nc1c(C(=O)Nc2ccc3c(c2)OCO3)oc2ccccc12)c1ccccc1C(F)(F)F | 4%
COC(=O)c1c(NC(=O)CC2SC(N)=NC2=O)sc(C)c1C (stereo not given) | -8%
Cc1oc(-c2cc(Cl)ccc2Cl)cc1-c1nn2c(-c3ccccc3)nnc2s1 | -1%
CC1(C)Cc2c(sc(NC(=O)/C=C/c3ccccc3)c2C#N)C(C)(C)N1 | -5%
CCOc1ccc(C(=O)Nc2ccc3c(c2)N(C(=O)C2CC2)CCC3)cc1 | 0%

Bioassay records from PubChem.

The list is partial. The share of hits here may be higher or lower than overall.
